From PubChem
FEN1 inhibitor = inhibitors of human flap endonuclease 1; P39748; Recombinant FEN1 flap cleavage, fluorescence, 15 min; Potency, µM (highest dose often 114 µM), without a hit: top-dose activity change, negative = inhibition, most hits filed as inhibitors; 390,000 tested, 0.35% active; AID 588795; further: nearly all actives have a fitted effect of over 65% in size
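FEN1 at 10 nM preincubated with compounds 15 min at room temperature, then flap DNA substrate added at 50 nM final. Signal read at 0 and 15 min; concentration-response fitted with four-parameter Hill equation.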
KAT2A inh = blocks human GCN5L2 histone acetyltransferase | Q92830 | GCN5L2 HAT assay, ThioGlo1 CoA-SH fluorescence | Potency, µM (doses to about 58.9 µM), for inactives: at the top dose activity change, negative = inhibition, usual class: inhibitors | 390,000 tested, 0.21% active | AID 504327
Target sequence (Q92830 whole entry, looked up): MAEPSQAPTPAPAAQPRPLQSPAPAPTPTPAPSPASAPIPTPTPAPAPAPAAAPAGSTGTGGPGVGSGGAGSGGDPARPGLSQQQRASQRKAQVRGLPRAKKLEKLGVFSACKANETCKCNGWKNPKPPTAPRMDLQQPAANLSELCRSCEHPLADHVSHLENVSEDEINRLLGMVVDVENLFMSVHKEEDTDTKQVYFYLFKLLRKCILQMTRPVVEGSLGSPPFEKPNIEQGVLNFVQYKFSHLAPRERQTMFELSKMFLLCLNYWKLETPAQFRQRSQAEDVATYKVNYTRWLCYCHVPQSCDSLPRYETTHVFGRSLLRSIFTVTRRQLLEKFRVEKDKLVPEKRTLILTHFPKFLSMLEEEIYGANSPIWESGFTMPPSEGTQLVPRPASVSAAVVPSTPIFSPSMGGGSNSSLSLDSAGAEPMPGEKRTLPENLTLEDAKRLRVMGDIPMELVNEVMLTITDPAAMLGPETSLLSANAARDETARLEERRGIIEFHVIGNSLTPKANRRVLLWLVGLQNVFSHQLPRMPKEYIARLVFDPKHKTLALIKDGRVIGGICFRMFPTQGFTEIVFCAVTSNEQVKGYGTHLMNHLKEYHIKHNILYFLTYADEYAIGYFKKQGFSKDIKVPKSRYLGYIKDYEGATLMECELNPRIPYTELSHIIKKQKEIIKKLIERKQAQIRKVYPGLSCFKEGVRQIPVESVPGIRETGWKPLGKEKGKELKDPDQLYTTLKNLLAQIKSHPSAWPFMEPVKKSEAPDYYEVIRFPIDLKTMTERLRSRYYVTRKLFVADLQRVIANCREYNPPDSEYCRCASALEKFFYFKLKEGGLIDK
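Free CoA generated was detected with ThioGlo1 (50uM) fluorescence at Ex340nm/Em540nm, read immediately and after 20 min at room temperature. Enzyme, 20 nM in HEPES pH 7.5 buffer, saw compounds 15 min before adding 75uM H3(1-25) peptide and 70uM acetyl-CoA.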
* = called active by the depositor; ? = inconclusive; . = no result given; & = joins results of further samples. The call rests on the fitted dose curve; in most records, active means well fitted curve in the direction sought with a large enough effect; inconclusive means small, poorly fitted or top-dose-only effect, or another doubt; inactive means no such curve, though single readings can be large; an effect the other way counts as inactive or inconclusive. On the % scale 0 is the no-effect control and ±100 the full control effect; potency means the concentration at half of the fitted maximal effect. These rows are one share of the data, and most or all hits are left out here.

SMILES	FEN1 inhibitor	KAT2A inh
CCN1CCN(C(c2cc(OC)c(OC)c(OC)c2)c2nnnn2C(C)C)CC1 (configuration not stated)	6.8%	-14.7%
Cn1c(NC(=O)/C=C/c2ccc(Cl)c(Cl)c2)cc(=O)n(C)c1=O	-4.3%	-2.9%
CC(=O)NCc1nc2cccnc2n1Cc1ccccc1	7.9%	-1.1%
COc1ccc(/C=C/c2ccccc2)cc1C1C2C=CCC(C)C2C(=O)N1Cc1ccccc1 (configuration not stated)	6.5%	.
COC(=O)C(CC(=O)c1cccc(OC)c1)c1ccc(F)cc1 (configuration not stated)	5.0%	-7.9%
CC(=O)c1cccc(NC(=O)c2cccn2-c2nnc(N3CCCCC3)s2)c1	6.6%	6.3%
COc1ccccc1N1CCN(C(=O)C2CCN(S(=O)(=O)c3cnc[nH]3)CC2)CC1	-7.1%	-1.2%
CCN1CCN(C(=O)C2CCN(C(=O)c3cc4sccc4n3CC)CC2)CC1	9.0%	0.2%
COc1ccccc1NC(=O)C1CCCN(c2ncnc3c2nc2n3CCCCC2)C1 (configuration not stated)	-11.1%	0.1%
O=C(COc1ccc(Cl)cc1)OCc1csc(Nc2ccccc2)n1	-9.7%	-14.4%
CCOC(=O)c1c(C)[nH]c(C(=O)OCC(=O)Nc2ccccc2)c1C	14.7%	-1.0%
CCOC(=O)C1(CC2CCCCO2)CCN(Cc2cc(F)ccc2-n2cccn2)CC1 (configuration not stated)	14.9%	-1.8%
O=C(NCC(c1ccco1)N1CCCC1)c1cc(S(=O)(=O)N2CCCCC2)ccc1Cl (configuration not stated)	-11.8%	-2.6%
C=CCN(c1ccccc1OC)S(=O)(=O)c1ccc(Cl)c(C(=O)Nc2ccc(N3CCOCC3)cc2)c1	-21.3%	-7.6%
O=C(C1CCCCC1)N1CCN(S(=O)(=O)c2ccc(Br)cc2)CC1	1.9%	-15.7%
Cc1ccc2nc(-c3ccccn3)cc(C(=O)Nc3ccc(S(=O)(=O)N4CCOCC4)cc3)c2c1	-6.8%	-2.5%
Cc1ccc(-c2nnc(C)c(N3CCCC3)n2)cc1	9.4%	-9.5%
CCOC(=O)c1cc(-c2ccccc2)nc2ccc(C)cc12	-22.3%	-4.7%&-14.4%
N=c1c(S(=O)(=O)c2ccc(Br)cc2)cc2c(=O)n3ccccc3nc2n1Cc1ccccc1	-5.1%	-2.0%
O=S(=O)(c1cccs1)N1CCN(C/C=C/c2ccccc2)CC1	-21.0%	-7.9%
COC(=O)c1cc(C(=O)c2ccccc2)n2c(=O)/c(=C\N(C)C)sc12	13.8%	-1.5%
CCn1nc(C)c(NC(=O)/C=C/c2ccc(OC)c(COc3ccc(Cl)cc3Br)c2)c1C	0.7%	0.8%
Cc1ccc(S(=O)Cc2ccc(C(=O)N3CCN(C4CCCCC4)CC3)o2)cc1 (configuration not stated)	-8.1%	-3.5%
O=C(Cn1c(-c2cccs2)cc2cc(F)ccc21)NCCc1ccc(Cl)cc1	-11.2%	0.1%
COC(=O)c1ccc(NC(=O)c2ccccc2NS(=O)(=O)c2ccccc2)cc1	2.6%	-5.7%
COc1ccc(O)c(CN2CCC(n3nccc3NC(=O)CCOc3ccccc3)CC2)c1	3.7%	-0.7%
O=C(/C=C(\c1ccccc1)n1cncn1)c1ccccc1	2.3%	3.0%
O=C(CCCC(=O)Nc1ccccc1Br)N/N=C/c1c(F)cccc1Cl	1.2%	-3.3%
COc1ccc(NC(=O)C(C(C)C)N2Cc3ccccc3C2=O)cc1 (configuration not stated)	-6.2%	-16.5%
COc1cccc(C(=O)OCn2nnc3ccccc3c2=O)c1	4.2%	-10.9%

A draw from above in order of length of the SMILES, descending.
SMILES	FEN1 inhibitor	KAT2A inh
COC(=O)c1cc(C(=O)c2ccccc2)n2c(=O)/c(=C\N(C)C)sc12	13.8%	-1.5%
COc1cccc(C(=O)OCn2nnc3ccccc3c2=O)c1	4.2%	-10.9%
Cc1ccc(-c2nnc(C)c(N3CCCC3)n2)cc1	9.4%	-9.5%

(cont.)
SMILES	FEN1 inhibitor	KAT2A inh
CCOC(=O)C1CCN(C(=O)COc2ccc(Br)cc2C)CC1	1.0%	-6.2%
COc1ccc(CCN2C(=O)CSC2c2ccc(OC)c(OC)c2)cc1OC (configuration not stated)	17.9%	-4.5%
CCC1CCC(C(=O)NC(C(=O)NCCN2CCOCC2)C(C)C)CC1 (configuration not stated)	-12.5%	2.9%
CCOc1ccc(CCNC(=O)c2ccccc2OCc2c(C)noc2C)cc1OCC	0.7%	-0.1%
CCOCCCNC(=O)CCc1nnc2ccc(N3CCN(c4cccc(OC)c4)CC3)nn12	-6.5%	-1.7%
O=C(CNCc1ccc(Cl)cc1)Nc1ccc(C(=O)N2CCCCCC2)cc1	6.7%	-9.5%
COc1ccc(S(=O)(=O)N2CCN(C(=O)c3cc(C)on3)CC2)cc1	-2.9%	-0.1%
Cc1ccc(C2=Nc3ccccc3NC(C)(c3ccc(C)o3)C2)o1 (configuration not stated)	-3.4%	-26.4%
CCOC(=O)C1=C(C)NC(=S)NC1c1ccc(OCC(=O)N2CCCCCC2)c(OC)c1 (configuration not stated)	-12.1%	-1.8%
Cc1ccc2nc(-c3ccc(NS(=O)(=O)c4ccc(F)c(F)c4)cc3)sc2c1	-23.8%	-18.5%
CN(CC(=O)Nc1cccc(F)c1)S(=O)(=O)c1ccc2c(c1)n(C)c(=O)c(=O)n2C	-2.5%	-2.3%
O=C(NCc1ccco1)c1ccc(Cn2c(=O)c3sccc3n(Cc3ccc(F)cc3)c2=O)cc1	-14.7%	-3.1%
Cc1c(Cl)c([N+](=O)[O-])nn1CCCC(=O)Nc1cccnc1	-1.6%	-3.3%
Cc1cc(C)c(C(=O)CSc2nnc(C)c(=O)[nH]2)cc1C	18.4%	-12.6%
Cc1ccc(C)c(NC(=O)c2ccc(OCc3c(C)noc3C)cc2)c1	-4.5%	-3.5%
Cc1c(C(=O)N/N=C/c2cccnc2)nnn1-c1nonc1N	-14.2%	-7.0%
Cc1ccc(-c2nc3sccn3c2Nc2ccc(C)c(C)c2)cc1	-6.6%	-13.6%
COCCNC(=O)/C(C#N)=C\c1ccc(CNC(=O)C(=O)Nc2ccc(C)c(C)c2)o1	-7.1%	-2.6%
COCCCNC(=O)CN(CCc1ccccc1)S(=O)(=O)c1ccccc1	2.2%	1.9%
Cc1cc(C)c(NC(=O)c2cnn(C)c2)c(C)c1	4.6%	-5.5%
S=C(Nc1ccccc1)N1CCN(c2ccccn2)CC1	-7.9%	-6.1%
COc1ccccc1COC(=O)Nc1c(C)nn(C)c1Cl	7.8%	?
CCOC(=O)N1CCN(C(=O)c2ccc(OC)c(OC)c2)CC1	1.2%	-12.4%
CC1(c2ccc3noc(-c4cccc(F)c4)c3c2)OCCO1	1.1%	-1.3%
CC1(C)CC(=O)C2=C(C1)N(Cc1ccco1)C(=O)C2(O)C(F)(F)F (configuration not stated)	-2.2%	10.6%
CCOC(=O)c1cn(CC)c2cc(Cl)c([N+](=O)[O-])cc2c1=O	-3.3%	12.3%
COc1cc(OC)c(C2SCCCS2)cc1OC	0.1%	0.9%
Cc1cc(C(=O)CSC(C)c2nc3ccccc3c(=O)[nH]2)c(C)n1C (configuration not stated)	-0.5%	-2.3%
CCC1(CC)NC(=O)N(CC(=O)Nc2ccc(C)cc2C)C1=O	15.4%	2.1%
CC(C)(C)c1cc(C(=O)NNC(=O)Nc2ccccc2)n(Cc2ccccc2)n1	-1.8%	-2.9%
Cc1c2cnn(-c3ccccc3)c(=O)c2c(C)n1C(C)C(=O)Nc1ccc(Br)cc1F (configuration not stated)	-16.1%	0.3%
O=C(NCc1ccccc1)C1=C[C@H](c2coc3ccccc3c2=O)C[C@H](OCCCCO)O1	13.2%	7.4%
COc1ccccc1C(=O)NNC(=O)CN1C(=O)c2ccccc2C1=O	-5.1%	-1.4%
[O-]/C(=C(\C(=S)NCc1ccccc1)[n+]1ccccc1)c1ccc(Cl)s1	-1.5%	-5.9%
CCC(c1nnc(SCC(=O)Nc2ccc(NC(C)=O)cc2)n1Cc1ccccc1)N(C)C (configuration not stated)	4.7%	-2.2%
CCCC(O)c1nc2ccccc2n1CCCCOc1ccc(OC)cc1 (configuration not stated)	-5.6%	-3.4%
COc1ccc(OCCN2C(=O)c3ccccc3C2=O)cc1	3.1%	-1.4%
CC(OC(=O)COc1cccc2c1OC(C)(C)C2)C(=O)Nc1ccc(S(N)(=O)=O)cc1 (configuration not stated)	11.0%	-16.1%
CNc1ncc(Cc2ccccc2)s1	-5.1%	0.6%
COc1cc(Cl)c(C)cc1NC(=O)c1cc2c(=O)oc3ccccc3c2s1	17.8%	8.9%
Cc1nn(-c2ccccc2)c(C)c1/C=N/N1CCN(c2ccccn2)CC1	-2.8%	-9.5%
CCO/C=C1/C(=O)N(C(C)=O)c2ccccc21	-6.4%	-4.3%
O=C(Nc1cc(C(F)(F)F)ccc1F)C1CCCC1	-21.8%	-8.0%
COc1cc(OC)c(C(=O)Nc2ccc(S(=O)(=O)N3CCCCC3)cc2)cc1OC	-16.8%	-5.9%
CCOc1ccc(-c2noc(CCC(N)=O)n2)cc1OCC	9.9%	-4.8%

An excerpt of these results, bar-delimited:
Molecule | FEN1 inhibitor | KAT2A inh
[O-]/C(=C(\C(=S)NCc1ccccc1)[n+]1ccccc1)c1ccc(Cl)s1 | -1.5% | -5.9%
CCC(c1nnc(SCC(=O)Nc2ccc(NC(C)=O)cc2)n1Cc1ccccc1)N(C)C (configuration not stated) | 4.7% | -2.2%
CCCC(O)c1nc2ccccc2n1CCCCOc1ccc(OC)cc1 (configuration not stated) | -5.6% | -3.4%
COc1ccc(OCCN2C(=O)c3ccccc3C2=O)cc1 | 3.1% | -1.4%
CC(OC(=O)COc1cccc2c1OC(C)(C)C2)C(=O)Nc1ccc(S(N)(=O)=O)cc1 (configuration not stated) | 11.0% | -16.1%
CNc1ncc(Cc2ccccc2)s1 | -5.1% | 0.6%

One compound at a time, from the list above:
CCOc1ccc(CCNC(=O)c2ccccc2OCc2c(C)noc2C)cc1OCC as listed: FEN1 inhibitor: 0.7%; KAT2A inh: -0.1%
COc1ccc(S(=O)(=O)N2CCN(C(=O)c3cc(C)on3)CC2)cc1 as listed: FEN1 inhibitor: -2.9%; KAT2A inh: -0.1%
O=C(CNCc1ccc(Cl)cc1)Nc1ccc(C(=O)N2CCCCCC2)cc1 as listed: FEN1 inhibitor: 6.7%; KAT2A inh: -9.5%

Continued:
SMILES	FEN1 inhibitor	KAT2A inh
O=C(NS(=O)(=O)Oc1ccc(F)cc1F)OC[C@@H]1CCCN2CCCCC12 (some centres not stated)	-14.8%	-9.1%
CCOC(=O)/C(=C\c1ccc(Cl)cc1)c1nc2sc(C)c(C)c2c(=O)[nH]1	-13.3%	-7.3%
CCn1c(SCC(=O)N(C)CCC#N)nc2cc(S(=O)(=O)N3CCOCC3)ccc21	-3.2%	-6.0%
CS(=O)(=O)c1ccc(N)cc1	22.0%	-4.3%
CCSc1nnc(NC(=O)C2CC2c2ccccc2)s1 (configuration not stated)	4.8%	-3.6%
COCCSc1ccccc1C(=O)N1CCOCC1	-0.3%	0.8%
CCOC(=O)c1c(C)c(-c2ccccc2)n(CC(=O)NC2CCCCCC2)c1C	0.4%	-0.2%
Cc1ccc(S(=O)(=O)N2CCN(c3nccnc3C#N)CC2)cc1	-20.3%	-1.4%
Cc1ccc(CNC(=O)c2ccccc2NC(=O)c2nsc3ccccc23)cc1	4.2%	-12.7%
Cc1ncccc1C(=O)N1CCCC(CNC(=O)c2ccc(-c3ccccc3)cc2)C1 (configuration not stated)	-8.1%	-0.3%
CCCN1C(=O)/C(=C/c2nc3ccccc3c(=O)[nH]2)c2ccccc21	-9.4%	-6.4%
C#CCNC(=O)C1=C[C@H](c2ccccc2)[C@@H](CCCO)[C@H](OCC)O1	-0.7%	-0.2%
CCOc1ccccc1NC(=O)CSc1nnnn1Cc1ccccc1	5.2%	-12.6%
COc1ccnc(NCc2ccc(Cl)cc2)c1C#N	2.5%	-2.5%
O=C(C1CCN(S(=O)(=O)c2cccc3cccnc23)CC1)N1CCN(C2CCCCC2)CC1	-6.1%	-16.6%
CCOc1ccc(-n2c(N)c(C(=O)NCC3CCCO3)sc2=S)cc1 (configuration not stated)	-4.3%	?
